YopH inh: blocks Yersinia enterocolitica YopH tyrosine phosphatase | fluorescence Ex485/Em525 | inhibition, %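 (about 10 µM by stock and volumes)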 | 0.16% of 140,000 active | AID 898;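 active means inhibition of 50% or more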;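 further: controls were vehicle for no effect and minimum signal wells for full effect; inactives centre near -20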
Arbovirus anti: blocks arbovirus infection | arbovirus infection cell-based antiviral screen | inhibition, % at 10 µM | 0.37% of 200,000 active | AID 1251;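 active means inhibition from about 30%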;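 further: bluetongue infection of BSR cells; cell survival read as ATP light after 72 h; 0% = infected wells without compound and 100% = uninfected wells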
RecA intein inh: blocks M. tuberculosis RecA intein splicing; cell-free RecA intein splicing, fluorescence; inhibition, %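 (about 9 µM by stock and volumes)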; 0.75% of 290,000 active; in the data active means inhibition above about 30%; inconclusive means no clear call, values can overlap the other calls;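 further: 0% = vehicle wells and 100% = reference inhibitor control wells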
Target sequence (P9WHJ3 whole entry, looked up): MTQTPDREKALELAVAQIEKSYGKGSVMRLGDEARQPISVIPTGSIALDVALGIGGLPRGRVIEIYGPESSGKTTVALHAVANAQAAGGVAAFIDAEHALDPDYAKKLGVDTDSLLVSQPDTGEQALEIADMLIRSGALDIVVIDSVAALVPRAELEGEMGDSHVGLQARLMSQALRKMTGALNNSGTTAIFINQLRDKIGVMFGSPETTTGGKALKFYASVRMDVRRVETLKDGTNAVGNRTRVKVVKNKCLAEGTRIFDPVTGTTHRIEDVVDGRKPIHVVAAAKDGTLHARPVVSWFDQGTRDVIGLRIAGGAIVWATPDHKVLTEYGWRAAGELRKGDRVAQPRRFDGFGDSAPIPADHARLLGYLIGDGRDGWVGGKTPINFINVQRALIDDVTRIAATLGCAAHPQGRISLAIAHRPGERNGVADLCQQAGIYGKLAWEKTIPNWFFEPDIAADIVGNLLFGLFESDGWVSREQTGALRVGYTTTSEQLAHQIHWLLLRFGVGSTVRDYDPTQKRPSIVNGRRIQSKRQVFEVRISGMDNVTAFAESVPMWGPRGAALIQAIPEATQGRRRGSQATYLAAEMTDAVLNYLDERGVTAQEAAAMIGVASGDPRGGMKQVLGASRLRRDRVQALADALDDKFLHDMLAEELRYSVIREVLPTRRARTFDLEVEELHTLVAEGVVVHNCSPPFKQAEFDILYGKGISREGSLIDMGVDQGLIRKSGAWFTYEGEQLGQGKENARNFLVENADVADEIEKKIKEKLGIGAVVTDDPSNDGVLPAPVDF
Mtb bLac sens: beta-lactam sensitization of Mtb H37Rv | M. tuberculosis H37Rv growth with meropenem, percent inhibition; hits of this screen are not shown here | 0.27% of 330,000 active | inhibition, % at 25 µM;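 active means about 74% or more and at least 40 points above the plate without the antibiotic, then above 30% in a dose series; inconclusive means first-round hits that could not be retested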;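 further: growth measured after seven days incubation then overnight dye step; 0% = bacteria only wells and 100% = bacteria with antibiotic; twin plates without the antibiotic show which effects depend on it; some results filed as inactive read as strong as hits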
Mtb growth: M. tuberculosis H37Rv growth inhibitors, H37Rv strain (AID 1626); 0.95% of 220,000 active; M. tuberculosis H37Rv growth inhibition; higher % means a stronger effect; inhibition, % at 10 µM, or IC50 in µM where a hit was titrated;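 active means confirmed in a dose series; inconclusive means inhibition above 80% but not taken into the dose series; inactive means below 80% or under 30% at every dose of the series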;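 further: bacteria incubated seven days before Alamar blue readout; 0% = bacteria only wells and 100% = bacteria with antibiotic wells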
Arbovirus anti repeat: also measured in Arbovirus anti; calls as there; inhibition, %; measured here: 10K subset replicate screen; many hits read low in the repeat;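 first of two repeat runs on a subset; 0% = infected and 100% = uninfected wells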
Active calls of the source: *; ? = inconclusive; / = no result given. Not all compounds are listed, so the mix of outcomes need not match the whole.

SMILES	YopH inh	Arbovirus anti	RecA intein inh	Mtb bLac sens	Mtb growth	others
Cc1onc(-c2c(Cl)cccc2Cl)c1C(=O)N/N=C(\N)COc1ccc(Cl)cc1	-38	-34	-4.5	6	-5%
CCSc1nnc(-c2ccc(C)cc2)c2ccccc12	-32	10	10	11	19%
CCc1ccc(CNCCc2ccc(F)cc2)cc1	-26	-11	1.1	2	14%
CC(=O)c1c(N2CCN(Cc3ccccc3)CC2)[nH]c(-c2ccccc2)nc1=S	-55	9	1.4	?	-1%
O=C(NC1CCCN(Cc2ccc(Cl)cc2)C1)c1c(F)cccc1F (stereo not given)	/	/	0.0	-6	/
COc1ccc(/C=C2\C(=O)NC(=S)N2C(=O)c2ccc(F)cc2)cc1	-13	0	-10	0	?
CC(=O)CCC(=O)NC1CCCc2c1cnn2-c1ccc(C(C)(C)C)cc1 (stereo not given)	/	/	-2.4	-2	/
CCN(CC)S(=O)(=O)c1cccc(C(=O)Nc2nnc(C)s2)c1	/	10	2.4	-5	/
Cc1ccc(S(=O)(=O)NC(C)C(=O)Nc2ccccc2C(=O)N2CCCC2)cc1 (stereo not given)	-52	2	-0.8	-3	-5%
COc1ccc(Cn2c(C3CC3)nc3ccc(NC(C)=O)cc3c2=O)cc1	-26	6	-0.2	-1	-4%
CC(C)CC(=O)NNC(=O)C(C)C	-13	1	-0.3	0	-4%
COc1cc(CN2CC(=O)N(c3cccc(Cl)c3C)C2=S)cc(OC)c1OC	/	/	4.5	10	/
CCN(CC)S(=O)(=O)c1cccc(NC(=O)Nc2cccc(C(F)(F)F)c2)c1	-15	-33	1.0	41	-7%
CCC(=O)Nc1ccccc1Nc1cc(C#N)c(C#N)cc1[N+](=O)[O-]	/	/	-1.5	3	-6%
O=C(Nc1ccccc1N1CCN(c2ccc(F)cc2)CC1)C12CC3CC(CC(C3)C1)C2	-22	4	1.8	-9	5%
COC(=O)CCCCCCCCC(O)C[N+]1(C)CCOCC1 (stereo not given)	/	/	-1.5	3	0%
COC(=O)/C=C/C(=O)N1CCN(c2ccccc2C)CC1	-24	-1	-2.1	89	0%
COc1ccccc1NC(=O)CSC(N)=O	2	-3	-2.9	-5	-6%
CC(=O)NS(=O)(=O)c1ccc(NC(=O)/C=C/c2ccccc2)cc1	/	7	1.2	2	4%
CC(=O)Nc1nc(C(=O)Nc2c(C)n[nH]c2C)cs1	-30	-1	0.8	-6	-1%
Cc1[nH]c2ccccc2c1/C=C/c1nc2ccccc2c(=O)[nH]1	/	/	/	29	7%
COc1ccc(C(=O)O)cc1S(=O)(=O)NCc1cccnc1	/	/	0.7	4	/
COc1ccc(CN2CCNC(=O)C2CC(=O)NC2CCCC2)cc1OC (stereo not given)	/	/	-5.6	-5	/
O=C(CCc1ccccc1Cl)Nc1ccc(S(=O)(=O)N2CCOCC2)cc1	/	/	2.0	-11	/
CCOC(=O)c1ccccc1NS(=O)(=O)c1cnn(CC)c1C	/	/	1.7	3	/

The last 4 records of the part before come first, to join the parts:
SMILES	YopH inh	Arbovirus anti	RecA intein inh	Mtb bLac sens	Mtb growth	others
COc1ccc(C(=O)O)cc1S(=O)(=O)NCc1cccnc1	/	/	0.7	4	/
COc1ccc(CN2CCNC(=O)C2CC(=O)NC2CCCC2)cc1OC (stereo not given)	/	/	-5.6	-5	/
O=C(CCc1ccccc1Cl)Nc1ccc(S(=O)(=O)N2CCOCC2)cc1	/	/	2.0	-11	/
CCOC(=O)c1ccccc1NS(=O)(=O)c1cnn(CC)c1C	/	/	1.7	3	/
CCCCOC(=O)c1ccc(NC(=O)c2ocnc2C)cc1	-52	10	-2.0	/	60%
CCNC(=O)COC(=O)c1cc(S(=O)(=O)N2CCCCC2)ccc1C	/	/	-1.1	-6	-8%
Cc1ccc2nc(Cl)c(-c3ccccc3)cc2c1	/	/	13	-8	/
COc1ccccc1/C=C/C(=O)NCC(=O)N/N=C/c1ccc2c(c1)OCO2	/	-12	1.0	4	5%
CCn1ccnc1CN1CCN(CC=C(C)C)C(CCO)C1 (stereo not given)	/	0	-0.4	1	3%
O=C(CN1CCCCC1)N1CCCc2c1c(=O)oc1ccc(OCc3ccccc3)cc21	15	-19	4.3	2	-9%
NC(=O)c1oc2ccccc2c1NC(=O)c1ccc([N+](=O)[O-])o1	/	/	2.6	100	/
CSc1ccc(S(=O)(=O)N2CCC(C(=O)Nc3cccnc3)CC2)cc1	/	/	2.4	-6	/
Cc1c(C(=O)Nc2ccc(F)cc2)oc2ccc(S(=O)(=O)N3CCC4(CC3)OCCO4)cc12	-57	-22	-1.7	81	10%
CCN(CC)S(=O)(=O)c1ccc2c(c1)c(=O)c(C(=O)NCCCN(C)c1ccccc1)cn2C	-27	0	-5.3	-8	32%
COc1ccc(-n2nc(C(=O)NCC(=O)N3CCN(c4ccccc4)CC3)c3ccccc3c2=O)cc1OC	/	/	-0.8	4	/
CNC(=O)COC(=O)c1cc(-c2ccccc2)nn1-c1ccccc1	/	-5	1.0	-5	-2%
O=C1OC(c2cccs2)=N/C1=C\c1ccc(-c2cccc(Cl)c2)o1	-20	0	3.7	95	4%
O=C(CCCCCCCCCCC(=O)NCc1cccnc1)NCc1cccnc1	/	/	0.9	0	-19%
COc1ccccc1CCNC(=O)c1cnn2c(C(F)F)cc(C)nc12	-16	-10	4.6	7	2%	Arbovirus anti repeat=-2
Cc1nc(=O)c(-c2ccccc2)c(C)n1-c1ccc(C(=O)O)cc1	-5	6	-5.2	3	-10%
Cn1cccc1CC(=O)NNC(=O)Nc1ccc(Cl)cc1	-8	-2	2.3	-2	-8%
COC(=O)CN1C(=O)[C@H]2[C@@H](c3ccc(C)o3)N3C(=O)CN(CC4CC4)C(=O)[C@@]3(C)[C@H]2C1=O	/	/	7.3	-1	/
CCCCOP(=O)(c1ccc(N(C)C)cc1)C(O)c1cc(OC)ccc1OC (stereo not given)	/	/	0.1	4	/
Cn1c(NC(=O)c2cccc(C(F)(F)F)c2)cc(=O)n(C)c1=O	-31	2	-0.8	0	2%	Arbovirus anti repeat=3
CC(C)Cn1cnc2c1c(=O)[nH]c(=O)n2Cc1ccccc1	/	/	0.6	-1	/
CC(=O)Nc1cc2c3c(c1)CC(=O)N3CCC2	/	/	23	-2	/
O=C(CSc1cccc[n+]1[O-])c1ccc(Cl)s1	/	4	-1.2	99	?
COc1ccc(S(=O)(=O)N2CCOC2CNC(=O)C(=O)NCc2ccncc2)cc1 (stereo not given)	/	/	7.5	-2	/
O=C(COC(=O)CCN1C(=O)c2cccc([N+](=O)[O-])c2C1=O)NC1CCS(=O)(=O)C1 (stereo not given)	/	0	-4.2	3	-3%

In the list so far, three have a nitro group on carbon.
SMILES	YopH inh	Arbovirus anti	RecA intein inh	Mtb bLac sens	Mtb growth	others
CCC(=O)Nc1ccccc1Nc1cc(C#N)c(C#N)cc1[N+](=O)[O-]	/	/	-1.5	3	-6%
NC(=O)c1oc2ccccc2c1NC(=O)c1ccc([N+](=O)[O-])o1	/	/	2.6	100	/
O=C(COC(=O)CCN1C(=O)c2cccc([N+](=O)[O-])c2C1=O)NC1CCS(=O)(=O)C1 (stereo not given)	/	0	-4.2	3	-3%

Further entries follow:
SMILES	YopH inh	Arbovirus anti	RecA intein inh	Mtb bLac sens	Mtb growth	others
Cc1cc(S(=O)(=O)NCc2ccccc2)ccc1OCC(=O)Nc1cccc([N+](=O)[O-])c1	-23	-6	0.6	-5	5%
O=C(O)CCC(=O)Nc1ccc(/C=C/C(=O)C2CC2)cc1	/	1	0.8	2	-7%
O=C(COc1ccc(S(=O)(=O)N2CCCC2)cc1)NCc1cccnc1	/	/	-3.0	-6	/
Cc1coc2c(C)c3oc(=O)c(CCC(=O)NCCCn4ccnc4)c(C)c3cc12	/	/	7.0	-4	/
Cc1ccc(C(=O)NNC(=O)CSc2nnc3c(n2)[nH]c2ccc(F)cc23)cc1	3	-18	-0.3	4	-7%
Cc1ccc(NS(=O)(=O)c2cc(Br)cnc2N)c(Cl)c1	/	/	-0.5	-2	/
COc1cccc(C(=O)N(c2ccc(OC)cc2OC)C2C=CS(=O)(=O)C2)c1 (stereo not given)	-24	1	0.0	2	-8%
COc1ccccc1CN(C)C(=O)c1ccc2c(c1)NC(=O)CS2	-17	-3	1.1	0	/
CO/N=C(/CN1CCCCC1)c1ccc(Cl)cc1	/	/	-1.6	0	/
Cc1ccc(N2CC(NC(=O)C(=O)c3c(C)[nH]c4ccccc34)CC2=O)cc1 (stereo not given)	/	/	-0.2	-2	/
COC(=O)c1ccccc1NC(=O)c1ccccc1NS(C)(=O)=O	-7	0	0.7	12	-3%
CC(NC(=O)OC(C)(C)C)C(=O)Oc1cc2oc(=O)cc(-c3ccccc3)c2cc1Cl (stereo not given)	-20	-16	-70	12	-12%
CCCCC[C@H]1CN(C2CCCCC2)C(=O)[C@@H]1CC(=O)NCc1ccc(OC)cc1	/	/	4.8	7	/
O=C(CCN1C(=O)/C(=C/c2cccs2)SC1=S)Nc1ccc(C(=O)O)cc1	/	/	1.7	-3	/
COc1ccc(-c2cc(C3CCN(c4cc(Cl)nc(N)n4)CC3)[nH]n2)cc1	13	-24	8.8	97	5%
COc1ccccc1CCC(=O)NNC(=O)c1ccncc1	/	/	3.4	-5	/
CC(C)(C)S(=O)(=O)Cc1nc(-c2ccc(Cl)c(Cl)c2)cs1	/	/	4.7	6	-12%
CC(Oc1ccccc1Cl)C(=O)N1CCCN(C)CC1 (stereo not given)	/	/	2.4	-10	/
CCOc1ccc(NC(=O)C2CCN(S(=O)(=O)c3ccc4c(c3)NC(=O)C(C)S4)CC2)cc1 (stereo not given)	/	/	10	3	/
Cc1ccc2nc(NC(=O)COC(=O)c3ccccn3)sc2c1	/	7	-0.2	1	8%
CC1C(=O)CC(c2ccc([N+](=O)[O-])cc2)NC1c1ccc([N+](=O)[O-])cc1 (stereo not given)	/	2	-3.2	-9	-4%
CCSc1ccccc1C(=O)NCc1ccc(S(N)(=O)=O)cc1	-12	8	0.6	-12	0%
CCC1SC(CC)C(=O)N(CC(=O)NC2CCCCC2)C1=O (stereo not given)	/	15	/	/	11%
N#Cc1c(F)cccc1NCc1cccnc1	/	/	-2.6	2	/
CC(=O)N(c1ccccc1)C(C)c1nc(C#N)c(C#N)nc1C (stereo not given)	-23	-4	62*	4	8%

3 records drawn at random from those above:
SMILES	YopH inh	Arbovirus anti	RecA intein inh	Mtb bLac sens	Mtb growth	others
COC(=O)c1ccccc1NC(=O)c1ccccc1NS(C)(=O)=O	-7	0	0.7	12	-3%
O=C(CCN1C(=O)/C(=C/c2cccs2)SC1=S)Nc1ccc(C(=O)O)cc1	/	/	1.7	-3	/
O=C(O)CCC(=O)Nc1ccc(/C=C/C(=O)C2CC2)cc1	/	1	0.8	2	-7%

(continued)
SMILES	YopH inh	Arbovirus anti	RecA intein inh	Mtb bLac sens	Mtb growth	others
O=C(O)CCCC(=O)Nc1ccccc1C(=O)O	-2	-1	-3.2	8	-1%
COc1ccc(C2=NCC(CSc3nnnn3C)S2)cc1 (stereo not given)	-65	-7	/	-5	-4%
C=CCn1c(SCC(=O)Nc2ccc3c(c2)OCCO3)nnc1-c1ccccn1	4	9	0.0	3	-1%
CCCCN1c2cc(C)c(O)cc2C(C(=O)OCC)C1C (stereo not given)	7	9	-0.7	?	1%
O=C(N/N=C/c1ccc(OC(F)F)cc1)c1cccc(S(=O)(=O)N2CCOCC2)c1	/	3	-1.8	3	-17%
COc1ccccc1CN1CC(C(=O)NCCc2ccccc2Cl)CCC1=O (stereo not given)	/	/	1.7	5	/
Cc1cc(C(=O)Nc2ccccc2C(F)(F)F)no1	-22	2	1.0	?	-6%
Cc1ccc(N2CC(=O)Nc3c(oc4nc(-c5ccccc5)cc(C)c34)C2=O)cc1	/	/	-6.0	1	4%
CCOC(=O)C1=C(C)Nc2nc(SCc3cccnc3)nn2C1c1ccc(OC)cc1 (stereo not given)	-39	6	-0.4	4	2%	Arbovirus anti repeat=0
CCN1C[C@]2(COC)CC[C@H](OC)[C@@]34C5C[C@H]6C(=O)C5[C@](O)(C[C@H]6OC)[C@@](O)(C(OC)C23)[C@@H]14 (stereo not given in full)	/	/	3.8	-5	-8%
O=C(CSc1nnc(-c2ccccc2)o1)NCC1CCCCC1	-1	-6	3.2	88	50%
Cn1c(=O)c2c(SCC(=O)Nc3cccc(F)c3)nc(-c3ccco3)nc2n(C)c1=O	/	/	-0.3	-19	/

Compound activity from PubChem BioAssay.
